HNF4A DNA FP = change in binding of human HNF4 alpha to DNA; P41235; HNF4a-FITC DNA binding, fluorescence polarization, 1 h; activity change, % at 10 µM; hit rate 0.3% among 360,000; in the data active = activity change above about 30%, passing the limit was not always enough;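 also: controls were the assay level and a saturating level of protein; the project sought stronger binding though the title names inhibitors; some compounds called inactive have numbers as strong as hits; positive values seem to mean higher polarization but the record does not say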
LANA-H2B inh = blocks KSHV LANA binding to histone H2A/H2B; Q9QR71; cell-free LANA-H2A/H2B peptide, fluorescence polarization; inhibition, % (test concentration not listed); hit rate 0.6% among 320,000; in the data active = inhibition mostly above about 10%, no sharp cut-off; inactive = mostly below about 6.7%;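 also: stock transfer was 7.5 nL into about 10 µL; 0% = median of vehicle wells and 100% = median of positive control wells; one replicate is shown; the record names a cut of 25% in any replicate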
RanGTP-Impb inh = disruptors of Ran-importin-beta complex formation – biochemical, FRET, CFP-Ran, YFP-importin-beta, homogeneous, primary screen. cell-free CFP-Ran/YFP-importin-beta FRET ratio. inhibition, % (concentration not given with the values). hit rate 1.1% among 300,000. AID 2216;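 active = most replicates above 15%; inconclusive = exactly half above 15%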;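 also: 0% = DMSO wells and 100% = Ran loaded with GDP instead of GTP; wells of about 40 µL received 100 nL stock; the first replicate is given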
Vif TR-FRET = inhibitors of Vif binding to APOBEC3G peptide, primary screen, biochemical, TR-FRET, GST-Vif 1-94, biotin-A3G peptide, dose response retest (AID 1117319) | TR-FRET GST-Vif / biotin-A3G peptide binding; higher % means a stronger effect; test concentration not given here; strong numbers were not always called active | inhibition, %, or IC50 in µM where a hit was titrated | hit rate 0.57% among 260,000;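 active = above the screen mean plus three standard deviations and confirmed in dose response; inconclusive = results disagree or hit not tested in dose response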;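 also: Vif residues 1-94 fused to GST binding biotinylated APOBEC3G peptide 110-148; 0% = full assay without inhibitor and 100% = GST in place of GST-Vif; retest series ran down from 100 µM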
ALR H2O2 inh = human ALR oxidase inhibition via reduced H2O2 | P55789 | purified ALR, DTT oxidation, H2O2 HRP-luminol luminescence | inhibition, % (test concentration not listed) | hit rate 3.8% among 290,000 | AID 485317;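 active = mean and each replicate at 75% or more; inconclusive = only one of the two met; inactive = neither met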;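 also: stock transfer was 7.5 nL into about 7.5 µL; 0% = neutral wells and 100% = wells with inactivated enzyme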
Calb FLC = affects C. albicans growth with fluconazole; growth inhibition, % (test concentration not listed); C. albicans CaCi-2 (fluconazole-resistant clinical isolate) + fluconazole, Alamar Blue growth, 48 h; hit rate 0.57% among 300,000;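 active = most replicates above 75%; inconclusive = exactly half above 75%; inactive = most below 75%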;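 also: all wells also contain fluconazole at 8 µg/ml as a sub-toxic cotreatment; 0% = median of DMSO wells and 100% = median of geldanamycin control wells; wells of about 8 µL received 7.5 nL stock; the first replicate is given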
Beta2AR agonist = activates human beta-2 adrenergic receptor causing internalization. hit rate 0.43% among 340,000. Am2.2-beta2AR cells, FAP receptor internalization, flow cytometry; reference of the scale not given here. P07550. response, % (concentration not given with the values);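 active = response above a set limit, near 3 SD of response in nonfluorescent compounds, cut at about 42% in these data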;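 also: stock transfer was 100 nL into about 11 µL; a reference agonist was the positive control; negative values mostly stem from fluorescent compounds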
Starred values were filed as active, the others as inactive; ? = inconclusive; nt = no result given; ! = a repeat was not active.

Assay codes: A = HNF4A DNA FP; B = LANA-H2B inh; C = RanGTP-Impb inh; D = Vif TR-FRET; E = ALR H2O2 inh; F = Calb FLC; G = Beta2AR agonist
1) Cc1c(C)c2c(OCC(=O)NCC(C)C)cc3c(c2oc1=O)CCC(C)(C)O3
  A = -1.3	B = 2.4	C = ?	D = -6%	E = 7	F = 17	G = 8

2) CCN(C(=O)COC(=O)CN1C(=O)c2ccccc2C1=O)c1ccccc1
  A = -0.4	B = 2.4	C = nt	D = nt	E = 4	F = nt	G = 7

3) Cc1cc(C)cc(NC(=O)C(OC(=O)c2sccc2C)c2ccccc2)c1 (centres undefined)
  A = 2.2	B = 0.0	C = -0.3	D = -4%	E = 23	F = -5	G = 64*

4) COC(=O)CSC1=C(C#N)C(c2ccc(C)cc2)C2=C(CCCC2=O)N1 (centres undefined)
  A = -2.2	B = 0.0	C = 0.9	D = 9%	E = 2	F = -10	G = -7

5) COc1ccc(C(=O)O/N=C(\N)c2ccc(Cl)cc2)cc1
  A = -4.7	B = 0.7	C = 0.0	D = -4%	E = 3	F = -4	G = 0

6) O=C(c1ccc(Br)o1)N1CCN(c2ncccn2)CC1
  A = 1.2	B = 10	C = -2.0	D = 2%	E = 13	F = -1	G = -7

7) Cc1c(C(=O)Nc2ccc(N3CCOCC3)cc2)oc2ccccc12
  A = 1.4	B = 0.3	C = 2.1	D = 9%	E = 9	F = -6	G = 9

8) CCC(=O)Nc1ccc(S(=O)(=O)N2CCN(c3ccc(F)cc3)CC2)cc1
  A = 5.1	B = -4.0	C = 6.8	D = 1%	E = -4	F = -7	G = -9

9) O=C(O)CCSc1nc2ccccc2n1-c1ccccc1
  A = 1.3	B = 4.4	C = -1.2	D = nt	E = 3	F = 8	G = -7

10) COc1cccc(CNS(=O)(=O)c2cc3c(cc2C)NC(=O)CO3)c1
  A = -3.3	B = 2.0	C = 3.1	D = nt	E = -12	F = -3	G = 6

11) Cc1ccccc1NS(=O)(=O)c1nnc(NC(=O)CC(C)C)s1
  A = 1.7	B = 6.5	C = -5.6	D = 10%	E = nt	F = -2	G = 2

12) CC(=O)c1ccc(N2CCN(C(=O)c3ccc(NC4=NC5CS(=O)(=O)CC5S4)cc3)CC2)cc1 (centres undefined)
  A = 0.9	B = -1.0	C = 4.0	D = nt	E = 38	F = 9	G = 0

13) COC(=O)N/N=C/c1ccc(OC(=O)/C=C/c2ccco2)cc1
  A = -5.8	B = -3.2	C = 1.4	D = ?	E = 23	F = 0	G = -5

14) C(=N\Nc1nncc2ccccc12)/c1ccccc1
  A = 0.6	B = 1.3	C = 0.9	D = 19%	E = -2	F = -16	G = -10

15) CCCCCCn1c(SCCN2CCOCC2)nc2c1c(=O)[nH]c(=O)n2C
  A = -3.8	B = -5.2	C = -0.1	D = 7%	E = -6	F = 1	G = 1

16) CCOC(=O)N1CCN(C(=S)NC(=O)C23CC4CC(CC(C4)C2)C3)CC1
  A = 2.8	B = 0.8	C = -0.6	D = 6%	E = -2	F = 12	G = 1

17) O=C(CCCC(=O)OCC(=O)c1ccc(Cl)cc1Cl)Nc1cc(C(F)(F)F)ccc1Cl
  A = 2.9	B = 1.5	C = 2.4	D = ?	E = -5	F = -17	G = 6

18) CCCc1cc(=O)oc2cc(C)cc(OC(C)C(=O)NCCCn3ccnc3)c12 (centres undefined)
  A = 6.8	B = 6.3	C = 1.3	D = nt	E = -24	F = 2	G = -3

19) CCCc1nnc(NC(=O)CCC(=O)N2CCN(Cc3cc(F)ccc3OC)CC2)s1
  A = 2.6	B = -2.3	C = -2.2	D = nt	E = nt	F = 29	G = -4

20) O=[N+]([O-])c1cc(-c2nc(-c3ccncc3)no2)ccc1Cl
  A = -1.6	B = 1.3	C = 0.7	D = nt	E = -3	F = -2	G = 1

21) O=C(NCc1ccco1)c1ccc2ccccc2n1
  A = -0.1	B = -3.2	C = -3.0	D = nt	E = 0	F = -3	G = -1

22) COc1cccc(C(=O)Nc2cccc(OCC(=O)c3ccccc3)c2)c1
  A = 0.6	B = -3.4	C = -3.7	D = 8%	E = -10	F = 21	G = 10

23) CCN1CC(O)=C(c2nc3ccccc3s2)C1=N
  A = 22	B = 1.5	C = 3.0	D = -5%	E = -1	F = -4	G = 2

24) Cc1c(=O)n(OCc2cccc(F)c2)c2ccccc2[n+]1[O-]
  A = 1.6	B = -1.9	C = 0.8	D = -3%	E = -17	F = 19	G = -2

25) CCOc1ccc(-n2c(=S)sc3c(=O)n(-c4ccccc4)c(SCC(=O)O)nc32)cc1
  A = -2.8	B = 8.4	C = -2.9	D = -5%	E = -9	F = -8	G = 2

26) Cc1ccc(N2CN(Cc3cccnc3)CNC2=S)c(C)c1
  A = -0.7	B = -4.5	C = -0.8	D = 6%	E = -1	F = -5	G = -3

27) COc1cccc(OC)c1C(=O)Nc1cccc2c1CCCC2
  A = -2.2	B = 4.7	C = 3.8	D = nt	E = -10	F = 16	G = -11

28) O=C(NCCc1ccccc1)c1cc(S(=O)(=O)N2CCCC2)ccc1F
  A = 2.8	B = -2.0	C = 1.9	D = nt	E = -1	F = 23	G = 0

29) CC(C)c1ccc(NC2CCCN(C(=O)CN3C(=O)CSC3=O)C2)cc1 (centres undefined)
  A = 0.1	B = 8.2	C = -2.5	D = nt	E = 98*	F = 1	G = 0

30) O=C(OCC(=O)c1c[nH]c2ccccc12)C1=COCCO1
  A = 2.7	B = -0.3	C = 4.4	D = 0%	E = nt	F = 5	G = 4

31) CCOC(=O)C1=C[C@]2(CC)CCCN3CCc4c(n1c1ccccc41)[C@@H]32
  A = 3.2	B = 19*!	C = 0.2	D = 10%	E = nt	F = nt	G = 2

32) N#Cc1ccccc1OCC(=O)NC(=O)NCc1ccco1
  A = -2.0	B = -4.6	C = -2.6	D = 22%	E = 2	F = -2	G = -5

33) CCOc1ccc(NS(=O)(=O)c2ccc(C(=O)N3CCN(c4ncccn4)CC3)cc2)cc1
  A = -0.3	B = 1.4	C = 6.3	D = nt	E = nt	F = 2	G = -2

Some of the entries so far, screen by screen:
22. COc1cccc(C(=O)Nc2cccc(OCC(=O)c3ccccc3)c2)c1
23. CCN1CC(O)=C(c2nc3ccccc3s2)C1=N
24. Cc1c(=O)n(OCc2cccc(F)c2)c2ccccc2[n+]1[O-]
25. CCOc1ccc(-n2c(=S)sc3c(=O)n(-c4ccccc4)c(SCC(=O)O)nc32)cc1
26. Cc1ccc(N2CN(Cc3cccnc3)CNC2=S)c(C)c1
27. COc1cccc(OC)c1C(=O)Nc1cccc2c1CCCC2
28. O=C(NCCc1ccccc1)c1cc(S(=O)(=O)N2CCCC2)ccc1F
29. CC(C)c1ccc(NC2CCCN(C(=O)CN3C(=O)CSC3=O)C2)cc1 (centres undefined)
30. O=C(OCC(=O)c1c[nH]c2ccccc12)C1=COCCO1
31. CCOC(=O)C1=C[C@]2(CC)CCCN3CCc4c(n1c1ccccc41)[C@@H]32
32. N#Cc1ccccc1OCC(=O)NC(=O)NCc1ccco1
33. CCOc1ccc(NS(=O)(=O)c2ccc(C(=O)N3CCN(c4ncccn4)CC3)cc2)cc1

| Assay by compound | 22 | 23 | 24 | 25 | 26 | 27 | 28 | 29 | 30 | 31 | 32 | 33 |
| --- | --- | --- | --- | --- | --- | --- | --- | --- | --- | --- | --- | --- |
| HNF4A DNA FP | 0.6 | 22 | 1.6 | -2.8 | -0.7 | -2.2 | 2.8 | 0.1 | 2.7 | 3.2 | -2.0 | -0.3 |
| LANA-H2B inh | -3.4 | 1.5 | -1.9 | 8.4 | -4.5 | 4.7 | -2.0 | 8.2 | -0.3 | 19*! | -4.6 | 1.4 |
| RanGTP-Impb inh | -3.7 | 3.0 | 0.8 | -2.9 | -0.8 | 3.8 | 1.9 | -2.5 | 4.4 | 0.2 | -2.6 | 6.3 |
| Vif TR-FRET | 8% | -5% | -3% | -5% | 6% | nt | nt | nt | 0% | 10% | 22% | nt |
| ALR H2O2 inh | -10 | -1 | -17 | -9 | -1 | -10 | -1 | 98* | nt | nt | 2 | nt |
| Calb FLC | 21 | -4 | 19 | -8 | -5 | 16 | 23 | 1 | 5 | nt | -2 | 2 |
| Beta2AR agonist | 10 | 2 | -2 | 2 | -3 | -11 | 0 | 0 | 4 | 2 | -5 | -2 |

Screening results: PubChem, several laboratories
